Bioassay records deposited in PubChem BioAssay by National Center for Advancing Translational Sciences (NCATS).
Sfp PPTase inh: Sfp phosphopantetheinyl transferase inhibition. Q9F4F7. 3.5% of 310,000 active. Biochemical Sfp PPTase activity, qHTS. Potency, µM, for the others: max response, negative = inhibition, usual class: inhibitors; active = well fitted inhibition curve with a large enough effect; inconclusive = small, poorly fitted or top-dose-only effect, or another doubt; inactive = no such curve, though single readings can be large or run the other way;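 note: the enzyme is Sfp with the accession as filed and its product quenches rhodamine fluorescence; potency is the fitted concentration of half-maximal effect; 0% = enzyme reaction without inhibitor and -100% = no enzyme wells; top concentration of the series not given in the record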
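Buffer: 50 mM Hepes-Na pH 7.6, 10 mM MgCl2, 0.01% Nonidet P-40, 0.01% BSA. Enzyme 15 nM, pre-exposed to compound 15 min; substrates then added and fluorescence change tracked over 30 min.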
TRPML1 ag: human mucolipin-1 channel agonism. activation, % (no concentration beside the values). 0.12% of 410,000 active. TRPML1-expressing cells, Ca2+ dye fluorescence, FDSS; host cell line not named in the record; reference of the full effect not given here. Q9GZU1; in the data active = activation above about 50%; inconclusive = about 30% to 50%; inactive = below about 30%; note: 0% is about no effect; the text of the record puts the active cut at 80%
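Cells: TRPML1-DL, 1X Tet inducer, ~16 h at 37 degrees C/5% CO2. Dye: ABD Ca8 no-wash + quencher, 45-90 min RT. Read: 10 s baseline, compound add, 110 s agonist phase; 54-4 EC80 (4uM final), 110 s antagonist phase.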
Menin MLL FP FL: menin-MLL binding inhibition, fluorescein peptide; Fluorescence polarization, fluorescein-MLL peptide displacement from menin; FP activity change, % at 61.4 µM; 290,000 tested, under 10 active; inconclusive = falling polarisation curve, or a change in total fluorescence; inactive = total fluorescence flat and polarisation flat or rising; no compound was filed as active; the % refers to the polarisation; negative = inhibition;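 note: % of control where 0% means no effect; inhibitors lower the polarisation; unlabelled MLL peptide was the positive control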
TRPV1 potentiator: potentiators of human vanilloid receptor 1 (TRPV1); Q8NER1; TRPV1-expressing cells, Fluo-8 calcium influx, capsaicin EC20 potentiation; host cell line not named in the record; control for the full effect not named in the record; potentiation, % at 8.33 µM; 0.02% of 320,000 active; AID 540277; active means potentiation above 80%; inconclusive means 30% to 80%; inactive means below 30%; note: 0% is about no effect
Target sequence (Q8NER1 whole entry, looked up): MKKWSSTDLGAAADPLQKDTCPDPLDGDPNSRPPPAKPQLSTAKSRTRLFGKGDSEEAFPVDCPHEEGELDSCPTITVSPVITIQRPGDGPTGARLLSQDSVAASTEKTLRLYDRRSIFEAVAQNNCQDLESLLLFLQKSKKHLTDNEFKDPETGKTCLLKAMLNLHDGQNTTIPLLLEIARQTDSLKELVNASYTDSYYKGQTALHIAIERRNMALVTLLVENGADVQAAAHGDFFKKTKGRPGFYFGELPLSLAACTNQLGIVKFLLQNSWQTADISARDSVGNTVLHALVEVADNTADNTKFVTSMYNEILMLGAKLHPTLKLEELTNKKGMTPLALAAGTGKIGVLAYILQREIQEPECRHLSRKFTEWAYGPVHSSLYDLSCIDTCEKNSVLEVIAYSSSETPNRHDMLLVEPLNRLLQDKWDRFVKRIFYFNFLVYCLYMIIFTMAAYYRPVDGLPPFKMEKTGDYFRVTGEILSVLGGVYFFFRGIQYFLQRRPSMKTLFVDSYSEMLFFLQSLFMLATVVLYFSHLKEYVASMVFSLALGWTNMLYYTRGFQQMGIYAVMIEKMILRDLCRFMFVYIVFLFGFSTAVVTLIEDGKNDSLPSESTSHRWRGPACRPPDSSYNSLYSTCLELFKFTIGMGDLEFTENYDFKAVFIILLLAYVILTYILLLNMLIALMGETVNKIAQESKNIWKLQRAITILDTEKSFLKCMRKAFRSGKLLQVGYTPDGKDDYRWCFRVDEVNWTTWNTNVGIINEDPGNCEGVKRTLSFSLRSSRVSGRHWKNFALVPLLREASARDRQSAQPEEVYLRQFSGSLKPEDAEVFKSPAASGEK
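TRPV1-expressing cells were cultured overnight at 35.5C and loaded with Fluo-8 calcium dye for 40 to 90 min at room temperature. After a 10 s baseline, compound was added and calcium influx was read kinetically for 3 min (ex 480/em 520 nm).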
TRPML1 inh: inhibitors of human TRPML1 channel; Q9GZU1; TRPML1-inducible cells, Ca2+ dye fluorescence, FDSS; stronger effect = lower value; inhibition of EC80 agonist-evoked calcium signal; activity change, negative = inhibition, % (test concentration not listed); 0.02% of 390,000 active; AID 624415; in the data active means activity change below about -50%; inconclusive means about -30% to -50%; inactive means above about -30%;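 note: stimulus is agonist 54-4 at its EC80 concentration; % is set by controls: 0 for no effect and ±100 for the full control effect; compound concentration not given in the record; the text of the record puts the active cut at -80%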
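Calcium fluorescence in TRPML1-DL cells induced overnight with Tet: a 110 s read after compound pin addition, then a 110 s antagonist read after challenge with 54-4 at 4 uM final (EC80).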
ClpP mod: qHTS Assay for Activators of ClpP | 1.9% of 340,000 active | purified B. subtilis ClpP, FRET peptide cleavage, 20 min | AID 651965, 2013 | Potency, µM (top dose mostly 57.5 µM), for inactives: at the top dose activity change, negative = active | ATP-dependent Clp protease proteolytic subunit (Bacillus subtilis (strain 168)), P80244; active = well fitted falling curve with a large enough effect; inconclusive = small, poorly fitted or top-dose-only effect; inactive = no such curve, though single readings can be large or run the other way; note: potency is the fitted concentration of half-maximal effect; the source files actives as falling curves though it sought activators and does not explain the sign; nearly all actives have a fitted effect of over 65% in size; many hits overshoot -100%
Target sequence (P80244 whole entry, looked up): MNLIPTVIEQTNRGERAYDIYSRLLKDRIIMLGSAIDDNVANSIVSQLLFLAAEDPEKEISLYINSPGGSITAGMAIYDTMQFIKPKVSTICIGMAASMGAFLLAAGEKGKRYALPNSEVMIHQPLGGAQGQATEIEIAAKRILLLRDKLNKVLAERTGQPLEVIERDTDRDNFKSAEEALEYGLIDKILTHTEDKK
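Buffer: 100 mM Tris/HCl pH8, 100 mM KCl, 0.05% low protease BSA, 2.5% glycerol, 0.01% Tween-20. ClpP 10 microg/mL final; 20 min RT; delta FRET normalized to ADEP and DMSO controls.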
PINK1 expr mod: modulators of PINK1 expression; PINK1 immunofluorescence, high-content cytometry, 24 h; Potency, µM (series often up to 76.6 µM), without a hit: top-dose activation (PINK1 increase), actives largely listed as activators; 0.2% of 410,000 active; active = well fitted activation curve with a large enough effect; inconclusive = small, poorly fitted or top-dose-only effect; inactive = flat fitted curve, though single readings scatter; cell line not stated here;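 note: potency is the fitted concentration of half-maximal effect; % of control where 0% means no effect; nearly all actives have a fitted effect of over 65% in size; a mitochondrial uncoupler was the plate control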
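Stable cell line treated 24 h with compounds at 5 concentrations (CCCP controls), then fixed and immunostained for PINK1 plus nuclear and cell stains; PINK1 immunofluorescence quantified by laser-scanning microplate cytometry.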
An asterisk follows results filed as active; ? = inconclusive; / = not tested or not shown; & = joins results of further samples; [ ] = another dose, or the depositor's remark. The order is random; about 4.4% have a hit in one of these screens.

SMILES	Sfp PPTase inh	TRPML1 ag	Menin MLL FP FL	TRPV1 potentiator	TRPML1 inh	ClpP mod	PINK1 expr mod
CN(c1ccccc1)c1nc(N)c([N+](=O)[O-])c(Nc2ccccc2F)n1	4%	3.9	-16	3	-4	-1.0%	2.3%
Cc1ccc(C(=O)NCCSc2snnc2C)cc1	5%	-0.3	1.5	-27	8	-14%	-1.2%
O=C(Nc1ccccc1C(F)(F)F)c1cc2ncc(CCCl)cn2n1	4%	2.1	1.6	-15	-1	-2.8%	2.6%
O=C(N/N=C/c1cccnc1)c1ccccc1NS(=O)(=O)c1cccs1	25%	0.0	0.9	-1	-6	1.3%	5.7%
COc1ccccc1N1CCN(CC(O)COc2ccc3c(c2)OCO3)CC1 (centres undefined)	?	1.1	-1.7	0	-11	-0.4%	-1.7%
O=C(CSc1nnc(-c2ccco2)c(-c2ccco2)n1)c1ccccc1	14%	1.0	-0.3	9	-8	/	2.2%
O=S(=O)(Nn1cnnc1)c1ccccc1	2%	-0.7	3.0	-13	-8	0.2%	2.1%
Cc1cc(=O)oc2c(CN3CCN(C)CC3)c(O)c(Cl)cc12	7%	-0.3	3.0	-22	-7	-53%	0.2%
O=C(NC1CCCC1)c1cccc(S(=O)(=O)Nc2ccccc2F)c1	/	0.3	/	0	6	-1.8%	-2.2%
Cc1ccc(NC(=O)c2ccc(NS(=O)(=O)/C=C/c3ccccc3)cc2)nc1	9%	1.7	/	-1	7	-4.4%	-1.4%
S=c1[nH]nc(COc2ccccc2)n1/N=C/c1ccc(Cl)cc1	-28%	1.9	2.5	-17	1	/	9.2%
CC(=O)N1CCc2cc(S(=O)(=O)NC3CCCCC3)ccc21	9%	2.9	0.0	-1	-3	/	2.1%
CCOC(=O)c1cc(C(=O)OCC)c(=O)[nH]c1SCc1ccccc1	19%	2.2	-9.4	1	-13	-12%	-1.2%
CC1(C)CC(=O)C2=C(C1)Oc1ncn(CCCO)c(=N)c1C2c1ccccc1 (centres undefined)	4%	0.4	1.1	-3	3	-1.9%	1.9%[38.3 µM]
CCOC(=O)C1=C(C)N=C2SCCC(=O)N2C1c1ccc(C(=O)OC)cc1 (centres undefined)	2%	-0.5	2.9	1	-1	-0.6%	-1.6%
CC(C)Cc1nnc(NC(=O)CN2C(=O)NC3(CCCCC3)C2=O)s1	5%	0.2	/	5	4	-2.3%	1.0%
O=C1N[C@@H](Cc2ccccc2)C(=O)N2[C@H]1C[C@]1([C@]34C[C@H]5C(=O)N[C@@H](Cc6ccccc6)C(=O)N5[C@H]3N(S(=O)(=O)c3ccccc3)c3ccccc34)c3ccccc3N(S(=O)(=O)c3ccccc3)[C@H]21	/	1.2	/	-12	-2	-0.7%	1.4%
CCS(=O)(=O)N1CCC(C(=O)NCCCN2CCN(c3ccccc3F)CC2)CC1	18%	0.3	-0.4	-2	-4	1.3%	/
CC(Sc1nccn1C)C(=O)Nc1ccc(Cl)cn1 (centres undefined)	/	0.0	/	?	42	/	2.8%
O=C(Nc1nccs1)c1ccc(-c2ccc(F)c(Cl)c2)o1	?	2.0	/	-4	46	-19%	4.6%
O=C(O)Cn1c(SCCOc2ccc(Cl)cc2)nc2ccccc21	-13%	1.0	0.1	15	-4	-1.0%	2.1%
Cc1ccc2nc(-c3ccccc3)cc(C(=O)O)c2c1	-16%	-1.0	-0.9	5	0	?	80%[38.3 µM]
COc1ccccc1N1CCN(c2csc3ccccc3c2=O)CC1	/	2.1	/	/	24	-11%	0.9%
CC(C)Oc1ccc(OCCn2c(=S)[nH]c3c(N)ncnc32)cc1	50µM*	-0.1	0.3	9	6	-1.7%	2.6%
COC(=O)c1cc(S(=O)(=O)NCc2cccc(Br)c2)c[nH]1	12%	-0.5	-0.8	20	2	-1.1%	0.2%
C/C=C/C(=O)OCC(=O)Nc1cccc(S(=O)(=O)NC2=NCCCCC2)c1	13%	-0.5	-6.5	6	11	-0.1%	0.2%
CCN(Cc1ccncc1)C(=O)c1cccc(S(=O)(=O)N2CCCCC2)c1	/	1.5	/	/	-22	-2.4%	1.2%
Cc1ccc(-n2c(Cc3cccn3C)nnc2SCC(=O)Nc2nnc(C)s2)cc1	6%	-0.4	3.0	11	-1	0.5%	-5.8%[38.3 µM]
COC(=O)CN1CC(=O)N(c2ccccc2)C1=S	-8%	-0.8	-6.8	-15	9	-0.6%	1.3%
CCN1C(=O)[C@H]2[C@@H](c3ccc(OC)cc3)N3C(=O)CN(CCOC)C(=O)[C@@]3(C)[C@H]2C1=O	19%	-0.3	-3.0	-13	-4	1.0%	0.6%
COC(=O)CNC(=O)CCc1nnc(C2(c3ccc(Cl)cc3)CCC2)o1	7%	-0.1	-5.6	4	-4	-0.9%	-0.5%
COc1ccc(Nc2cc(Cl)nc(N)n2)cc1	-11%	-0.1	2.5	2	-4	/	-1.5%
CCOC(=O)Nc1ccc2c(c1)N(C(=O)OC)c1ccccc1CC2	11%	1.5	7.5	-5	13	-1.5%	1.9%
CCOC(=O)c1c(NC(=O)CCN2CCOCC2)sc2c1CC(C)(C)OC2	10%	-0.4	3.7	-10	-12	-11%	-0.5%
COc1ccc([C@@H]2CC=C(C(=O)O)[C@H](c3ccc(F)cc3)N2S(=O)(=O)c2ccccc2C)cc1	/	-0.2	/	25	16	-0.4%	-0.2%
CCCC(CCC)n1[nH]c(=O)c2c(C)cc(C)nc21	-10%	3.0	0.2	1	9	-0.3%	9.9%
CCCN(CCC)C(=O)c1cc([N+](=O)[O-])cc2c1-c1ccc([N+](=O)[O-])cc1C2=C(C#N)C#N	50µM*	-1.1	-4.6	-3	0	2.9%	0.4%
CCc1c(C)c2ccc(O)c(CN3CCN(c4ccc(F)cc4)CC3)c2oc1=O	/	0.0	/	/	-15	4.1%	0.8%
C=CCn1c(CNC(=O)c2ccco2)nnc1SCC(=O)c1ccc(OC)cc1	17%	-0.3	-0.5	10	-9	/	1.3%
CCn1c(=O)c(C(=O)NCCc2ccc(Cl)cc2)c(O)c2ccccc21	-14%	1.3	1.9	-1	-1	?	1.2%
COc1ccc(C)cc1N(C(=O)c1ccccc1F)c1nc2ccccc2s1	9%	1.0	/	-7	55	0.3%	5.3%
CCCCOC(=O)c1ccc(NC(=O)COC(=O)CN2C(=O)NC3(CCCC3)C2=O)cc1	/	0.5	/	/	12	-1.5%	2.9%
CC(C)(C)NC(=O)C[C@H]1C[C@H](C(=O)N2CCOCC2)[C@@]2(C)c3[nH]c4cc(-c5ccco5)ccc4c3CCN2C1=O	/	-0.3	/	/	-4	4.4%	1.9%
CC(=O)Nc1ccc(-n2cnnn2)cc1	19%	0.0	1.6	-8	-3	-1.7%	-2.9%
COc1cc(C(=O)Nc2cc(-c3cn4cccnc4n3)ccc2C)cc(OC)c1OC	9%	-0.8	-0.8	3	2	-0.2%	4.0%
C[C@@H]1CN([C@H](C)CO)C(=O)CCCn2nncc2CO[C@@H]1CN(C)S(=O)(=O)c1ccc2c(c1)OCCCO2	/	0.2	/	/	-10	1.3%	2.5%
Cc1ccc(SCc2noc(C(=O)NCC3CCCO3)c2C(=O)O)cc1C (centres undefined)	16%	-0.8	1.5	6	4	0.3%	0.1%
Cc1ccc(CN2C(=O)COc3cc(NS(C)(=O)=O)ccc32)cc1	/	-0.2	/	/	-8	/	0.8%
Cc1cc(C)cc(CC(=O)N2CCC2(C)C(=O)NS(=O)(=O)c2ccccc2)c1 (centres undefined)	/	-0.2	/	/	/	0.4%	-0.4%
Nc1[nH]n(-c2ccccc2)c(=O)c1N=Nc1ccc2c(c1)OCO2	-22%	2.2	1.8	-1	5	2.0%	3.8%
O=[N+]([O-])c1cccc(N=Cc2sc3ccccc3c2O)c1	6%	/	-1.1	-1	/	/	/
COc1cc2c(cc1OC)CN(C(=O)CSc1ccccc1C)CC2	/	1.3	/	/	9	22µM*	-0.5%
COc1cc(CNc2ccc(N3CCOCC3)cc2)ccc1OCC(=O)NC(C)(C)C	-8%	/	-2.2	-14	/	-2.2%	-0.3%
Nc1sc2c(c1C(=O)NC1CCS(=O)(=O)C1)CCCC2 (centres undefined)	20µM*	-0.4	-2.0	6	-14	-1.9%	0.7%
CC(C)N(Cc1nc(-c2ccccc2)no1)S(=O)(=O)c1ccccc1	16%	3.7	3.0	6	67	-3.8%	0.3%
CCC(C(=O)NNC(=O)c1cnccn1)c1ccccc1 (centres undefined)	?	0.7	-0.7	-20	-12	-1.4%	3.0%
O=c1cc(Nc2ccc3c(c2)OCCO3)[nH]c(=O)n1-c1ccc(Cl)cc1	11%	0.0	-2.2	-6	-11	-0.2%	1.7%
C=CCc1c(C)nc(C)nc1N/N=C/c1ccc([N+](=O)[O-])cc1	-20%	7.2	4.0	10	9	3.8%	-1.4%
COc1ccc(NC(=O)Cn2c(=O)n(Cc3nc(-c4ccccc4)no3)c(=O)c3cc4c(cc32)OCO4)c(OC)c1	/	0.8	/	/	-19	-13%	-0.7%
CC(=O)c1ccc(N(CC(=O)NC2CCCC2)C(=O)c2csnn2)cc1	-3%	0.5	-1.7	6	-1	/	-3.0%
New compounds follow.
SMILES	Sfp PPTase inh	TRPML1 ag	Menin MLL FP FL	TRPV1 potentiator	TRPML1 inh	ClpP mod	PINK1 expr mod
CCCN1CC=C2C(C#N)=C(N)C(C#N)(C#N)C(c3cc(OC)ccc3OC)C2C1 (centres undefined)	-12%	4.4	?	0	-5	-9.2%	?
CCOc1ccc(NC(=O)Nc2c(C)n(C)n(-c3ccccc3)c2=O)cc1	15%	-0.3&-0.7	2.5	-8	-15&44	0.7%&1.1%	-0.2%&0.7%
Cc1cccc(/C=N/n2c(C)nc3ccccc3c2=O)c1	7%	1.3	0.4	-11	0	0.9%	1.2%
O=C(NNC(=S)NC(=O)c1ccccc1)c1cccnc1	-22%	0.0	-4.2	1	13	-2.6%	1.6%
Cc1cc(=O)[nH]c(SCC(=O)NC(c2ccccc2)c2ccccc2)n1	12%	0.0	0.1	-5	-7	/	1.2%
